# From PubChem BioAssay
# HIV TAR-Tat = HIV-1 TAR-Tat binding disruption; HIV-1 TAR RNA, Tat peptide displacement FRET; active compounds read high; z-score (no concentration beside the values); 100,000 tested, 0.6% active;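 note: score is relative to mean and SD of negative controls; some compounds called inactive have numbers as strong as hits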
# CDC25B-CDK2 inh = human CDC25B-CDK2/CyclinA binding inhibition; AID 1259370; 94,000 tested, 0.72% active; HTRF CDC25B-CDK2/CyclinA binding, anti-His/anti-Flag; active compounds read high; P30305+P24941; z-score (test concentration not listed);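 note: score is relative to mean and SD of negative controls; strong numbers were not always called active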
# The depositor's hits bear a star; x = not tested or not shown.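 Rule for the calls: active = z-score from 3 up in half or more of its runs; inactive = the rest.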
structure | HIV TAR-Tat | CDC25B-CDK2 inh
CCOc1ccc(N(CC)S(=O)(=O)c2cc(Br)cc3c2N(C(C)=O)C(C)C3)cc1 (stereo not drawn) | -5.2 | -0.69
O=C(NCc1cccnc1)c1nnc(Cc2ccc3c(c2)OCO3)o1 | -1 | -0.65
Cc1c(C(=O)Nc2ccc(N3CCOCC3)c(Cl)c2)cnn1-c1ccc(F)cc1 | x | -2.3
CS(=O)(=O)c1ccc(-c2cccc(NS(=O)(=O)c3ccc(F)c(Cl)c3)c2)nn1 | 1.1 | x
COc1ccc(C)cc1S(=O)(=O)Nc1cccc(-c2ccc(S(C)(=O)=O)nn2)c1 | 0.83 | x
C=CCN(Cc1nc(-c2ccc(OC)cc2)no1)S(=O)(=O)c1ccc(OC)cc1 | 1.6 | 1.9
COCCN1CN=C(Nc2nc3ccccc3s2)NC1 | -0.58 | -0.09
CC1=C(C(N)=O)C(c2cccc(O)c2)n2nc(CCCO)nc2N1 (stereo not drawn) | 0.5 | -0.7
CC1CCN(Cc2nnc(-c3ccc4c(c3)OCO4)o2)CC1 | 0.29 | 0.33
Cc1nc2ccccc2nc1CSc1ccccc1N | 0.58 | -0.5
Cc1noc(C)c1S(=O)(=O)N(C)CC(=O)NC1CCCC1 | 0.8 | x
Cc1ccc(N2C(=O)N(Cc3ccc(F)cc3)C3CS(=O)(=O)CC32)cc1Cl (stereo not drawn) | 1.6 | x
Cc1ccc(C2NC(=S)NC(O)(C(F)(F)F)C2C(=O)c2cccs2)o1 (stereo not drawn) | x | -0.59
COc1ccc(N=Nc2ccc(OC)c(OC)c2)cc1OC | x | -2.6
CN(C(=O)c1nn(C)c2c1CSc1ccccc1-2)c1ccccc1Cl | 0.92 | -1.1
O=c1cc(C(F)(F)F)[nH]c2nc3ccccc3n12 | 2.3 | -0.42
O=C(NCCCN1CCN(C2CCCCC2)CC1)c1cc2c(s1)CS(=O)(=O)C2 | -4.8 | 0.48
COC(=O)c1sc(=S)n(-c2cccc(SC)c2)c1N | 1.6 | x
CCC(C)NC(=O)c1cnc2sc(N(CC)CC)nn2c1=O (stereo not drawn) | 0.36 | x
FC(F)(F)c1cnc(NCc2cccnc2)c(Cl)c1 | x | -2.2

# (list continues)
structure | HIV TAR-Tat | CDC25B-CDK2 inh
CCC(CN1CCOCC1)NC(=O)C1CCN(c2ccc(-c3cccs3)nn2)CC1 (stereo not drawn) | 1.1 | x
CCOC(=O)N1CCC2(CC1)OC(=O)C(C)=C2C(=O)NCCN(C)C | 0.71 | x
COc1ccc(Nc2cc(C)nc(-n3nc(C)cc3C)n2)cc1Cl | 1.2 | x
Cc1ccc(S(=O)(=O)Nc2cc3c(cc2C)n(C)c(=O)n3C)c(C)c1 | 0.79 | x
C=CCOc1ccccc1C1C(C#N)=C(N)OC(C)=C1C(=O)OCC (stereo not drawn) | x | -1.3
Cc1ccccc1-c1nc2ccccc2[nH]1 | 1.8 | 0.69
CCN(c1cccc(C)c1)S(=O)(=O)c1ccc(-c2cnc(C)o2)cc1 | 0.87 | x
Cc1cc(C)cc(NC(=O)CCc2nc(CSc3nnc(-c4ccco4)o3)no2)c1 | -0.04 | x
Cc1cc(N=Nc2cccc(C(F)(F)F)c2)ccc1N | x | -2
CCc1nc(SCc2cc(=O)c3ccccc3[nH]2)n[nH]1 | -0.39 | x
O=C(NC1CC1)C1CCN(c2ccc(=S)[nH]n2)CC1 | -0.84 | -0.34
Cc1ccc(CNc2nc3c(c(=O)[nH]c(=O)n3C)n2CC(O)COC(C)C)cc1 (stereo not drawn) | 0.37 | -0.38
CCCNC(=O)N(CC)Cc1nc(-c2ccc(C)cc2)no1 | 2.5 | -2
Cc1ccc(-c2[nH]nc3c2C(c2ccc(F)cc2)C2=C(CC(C)(C)CC2=O)N3)cc1 (stereo not drawn) | 1.4 | -1.6
Cc1ccc(CSc2nccn(-c3cc(C)cc(C)c3)c2=O)cc1 | 0.65 | x
CC1(C)CC(=O)C2=C(C1)OC(N)=C(C#N)C2CCc1ccccc1 (stereo not drawn) | x | -1
Cc1ccccc1-n1cc(-c2ccccc2)c2c(NCCN(C)C)ncnc21 | -0.92 | -1.4
Nc1nc(Nc2ccccc2F)nc(Nc2ccccc2)c1[N+](=O)[O-] | -0.36 | x
CCOC(=O)C1=C(C)NC2=C(C(=O)CC(c3ccc(OC)cc3)C2)C1c1ccc(O)c(OC)c1 (stereo not drawn) | 1.6 | -1.6
CC(C)NC(=O)NCc1cccn1Cc1ccc(Cl)cc1 | 1 | x

# Next section:
structure | HIV TAR-Tat | CDC25B-CDK2 inh
COCCc1nn2c(=O)cc(COC(=O)c3ccc(OC)cc3)nc2s1 | 1.7 | x
CSc1cccc(NC(=O)N2c3ccccc3NC3=C(C(=O)CC(C)(C)C3)C2c2ccco2)c1 (stereo not drawn) | 0.2 | x
Cc1c(C(=O)N(Cc2ccco2)C2CCCCC2)sc2nc3n(c(=O)c12)CCCCC3 | 0.51 | x
Cc1nc(N2CCCC(C)C2)c2c3c(sc2n1)CCC3 (stereo not drawn) | 0.25 | x
COc1ccc(OC)c(-c2cc(C(=O)O)c3c(-c4ccc(Br)cc4)[nH]nc3n2)c1 | 2.2 | x
COc1cc(O)ccc1C1CC(=O)Nc2nc(SCc3ccccc3Cl)[nH]c(=O)c21 (stereo not drawn) | -3.5 | 1.2
COc1ccccc1-c1nnc2sc(COc3ccccc3)nn12 | -3.1 | -2
O=c1c(Cc2ccc(F)cc2)c(O)nc2n1CCCS2 | -0.51 | -0.61
O=C(O)CSc1nnc(-c2ccncc2)n1-c1ccccc1 | 0.49 | -1.3
O=c1ccc2cc(S(=O)(=O)NCc3ccc4c(c3)OCO4)ccc2[nH]1 | -0.32 | x
CCC(C)NC(=O)C1CCCN(S(=O)(=O)N2CC(C)CC(C)C2)C1 (stereo not drawn) | 1 | x
CCOc1c(Br)cc(C2CC(=O)Nc3c2c(=O)n(C)c(=O)n3C)cc1OC (stereo not drawn) | 1.2 | -1
Cc1sc2ncn(CC(=O)NCC3CCCO3)c(=O)c2c1S(=O)(=O)N1CCC(C)CC1 (stereo not drawn) | x | 1.5
Cc1ccc(S(=O)(=O)Nc2ccc(C)c([N+](=O)[O-])c2)cc1 | x | 0.63
Cc1ccc2c(Cl)cc(Cl)c(O)c2n1 | 0.01 | x
Cc1cc(C)cc(NC(=O)CC(C)S(=O)(=O)c2cc3c(cc2C)NC(=O)CO3)c1 (stereo not drawn) | 0.43 | x
CC(C)NC(=O)c1ccc(N2CCSc3ccccc32)s1 | 0.42 | x
COC(=O)c1c(C)oc2cc(Br)c(OCc3ccccc3F)cc12 | 0.52 | -1.4
O=C(c1ccc(C#Cc2ccccc2)o1)N1CCOCC1 | x | -0.67
CC(C)CNc1ncnc2c1cnn2-c1cccc(Cl)c1 | -0.04 | x

# Next section
structure | HIV TAR-Tat | CDC25B-CDK2 inh
CC1CN(C(=O)Nc2ccc(F)cc2)c2ccccc2S1 (stereo not drawn) | 0.7 | x
COc1ccc2ncc(S(=O)(=O)c3ccc(C)c(C)c3)c(N3CCN(C)CC3)c2c1 | 2.4 | -1.2
Cc1nc2nc(CCc3ccccc3)[nH]n2c(=O)c1Cc1ccccc1 | 0.1 | -1.9
CCOCCCNC(=O)CCCn1c2ccccc2c2cn[nH]c(=O)c21 | -2.3 | -0.33
Cc1ccc(C(=O)CC2(O)C(=O)Nc3ccccc32)cc1C (stereo not drawn) | 2.4 | x
CCOc1ccc(/C=C/c2nc(C#N)c(NCCOC)o2)cc1 | 0.95 | -0.23
Cc1ccc(CSc2ccc3nnc(CCNS(=O)(=O)c4ccc(C)cc4)n3n2)cc1 | 0.96 | x
CCOC(=O)c1sc2ncnc(Oc3ccc(OC)cc3)c2c1C | 1.4 | x
CCC(=O)Nc1nnc2n1CCS2 | 0.72 | x
O=C(O)CSc1ccc(F)cc1Cl | x | 0.12
Cc1ccc(C)c(N2CCN(C(=O)Nc3ccc4c(c3)N(C)C(=O)CS4)CC2)c1 | -3.3 | 0.79
CCOC(=O)NC(=S)Nc1cc(C(F)(F)F)cc(C(F)(F)F)c1 | x | -0.88
CCN(Cc1nc(-c2ccc(C)cc2)no1)S(=O)(=O)c1ccc(C)cc1 | 1.7 | 0.74
CSC1=N/C(=C\c2ccc(OCC(=O)O)cc2)C(=O)S1 | -0.76 | -2.1
CCn1nc(C)c(CCNC(=O)CCc2c(C)nn(-c3ccc(N4CCCC4)nn3)c2C)c1C | -0.97 | x
Nc1nc(NCc2cccs2)nn1-c1ccccc1 | 2.2 | 2.4
CCN1CCCC1CNC(=O)C1CCCN(c2nnc(N3CCCC3=O)s2)C1 (stereo not drawn) | 1.5 | -1.9
COC(=O)Cn1cnc2c(oc3ccccc32)c1=O | 1.1 | x
Cc1ccc(S(=O)(=O)Nc2cc(-c3ccccc3)nn2C)cc1Cl | x | -0.72
Cc1cccc(-c2nc3ncccn3c2NCc2ccccc2)c1 | -0.21 | x

# Following part:
structure | HIV TAR-Tat | CDC25B-CDK2 inh
CC1(C)C2CCC1(CS(=O)(=O)Nc1cccc(S(N)(=O)=O)c1)C(=O)C2 (stereo not drawn) | x | -1.4
CCN1C(C(=O)OC)=C(OC(=O)C(C)(C)C)c2ccccc2S1(=O)=O | 0.8 | -0.35
O=S(=O)(Nc1cccc(-c2ccc(N3CCCC3)nn2)c1)c1cc(F)ccc1F | 1.6 | x
Clc1ccccc1-c1nnc2sc(-c3ccccc3)nn12 | -1.6 | -3.6
CC(C)CCn1c(CN2CCCCC2)nc2ccccc21 | -0.26 | -0.87
CCCCCN(CCN1C(=O)c2ccccc2C1=O)CCN1C(=O)c2ccccc2C1=O | x | 0.05
NC(=O)c1c(NC(=O)COc2ccccc2Cl)sc2c1CCCC2 | -0.8 | -7
Cc1csc(NC(=O)CN(C)S(=O)(=O)c2ccc3c(c2)NC(=O)CCS3)n1 | -0.9 | x
CC(=O)Nc1ccc(S(=O)(=O)NNc2c(Cl)cncc2Cl)cc1Cl | x | -1.5
CN(C)CCCN1C(=O)C(O)=C(C(=O)c2cccs2)C1c1ccncc1 (stereo not drawn) | -0.04 | -1.8
CC(C)(C)OC(=O)NCCC(=O)Oc1ccc2c(c1)oc(=O)c1ccccc12 | x | -1.3
COCCCN(Cc1ccco1)C(=O)c1oc(=O)c2ccccc2c1-c1ccccc1 | 0.97 | -1.3
Cc1cccc(NC(=O)c2cc3c(s2)-c2ccccc2S(=O)(=O)C3)n1 | 1.5 | -0.85
O=C(NCCCN1CCOCC1)C1CCCN(S(=O)(=O)N2CCCC2)C1 (stereo not drawn) | 1.7 | x
CC(C)CCOc1cccc(OCC(=O)NC2CCS(=O)(=O)C2)c1 (stereo not drawn) | 2.4 | -1.2
Cc1c(NC(=O)c2ccc(C(C)(C)C)cc2)c(-n2cnnc2)nn1C | 0.91 | -0.34
O=C1ON=C(c2ccccc2)/C1=C/c1ccc([N+](=O)[O-])s1 | x | -3.5
CN(c1nnc(NC(=O)Nc2cccc(Cl)c2)s1)C1CCCCC1 | 2.5 | -1.4
COc1cccc(C2Nc3ccccc3NC3=C2C(=O)CC(c2ccccc2)C3)c1OC (stereo not drawn) | -0.37 | -1.5
O=C(CCCn1c(=O)c2cccn2c2cccnc21)NCCCN1CCCC1=O | 1.4 | x

# Next records:
structure | HIV TAR-Tat | CDC25B-CDK2 inh
CC(=O)c1c(C)[nH]c(C(=O)N2CCc3ccccc3C2)c1C | x | -0.34
CC1CCC(NS(=O)(=O)c2ccc(-n3cccn3)cc2)CC1 (stereo not drawn) | 0.91 | x
CC1CC2c3cccc(C(=O)O)c3C(=O)N2Cc2ccccc21 (stereo not drawn) | x | -1.1
COc1ccc(NC(=O)N2c3ccccc3Sc3ccccc32)cc1 | x | -6.3
CN1C(=O)Cc2cc(S(=O)(=O)N(C)CCc3noc(-c4ccccc4F)n3)ccc21 | 2.2 | x
COc1ccc(CCN2COc3c(c4c(C(C)=O)c(C)oc4c4ccccc34)C2)cc1OC | x | -1.4
Nc1nc2ccccc2n1Cc1ccc(Cl)cc1 | x | -1
CCC(C(=O)OCc1cc(=O)n2c(C)csc2n1)c1ccccc1 (stereo not drawn) | 1.2 | x
C=CCn1c(SCC(=O)c2ccc(OC)c(OC)c2)nc2sc3c(c2c1=O)CCCC3 | 0.92 | 1.4
O=C(CCc1ccc(-c2ccc(F)cc2)o1)Nc1nccs1 | 0.2 | 1.3
Cc1ccc(N(C)S(=O)(=O)c2ccc(-c3ccc(=O)[nH]n3)s2)cc1 | -0.65 | x
COc1ccc(C(=O)CC2(O)C(=O)Nc3c(C)cc(C)cc32)cc1 (stereo not drawn) | 1 | x
CCC(C)Nc1c(-c2ccc(C(C)C)cc2)c(=O)c1=O (stereo not drawn) | 1.9 | x
CC1CCC(NC(=O)Nc2cccs2)CC1 (stereo not drawn) | -1.6 | -0.11
Cc1nn2c(NC(C)C)cc(C(C)(C)C)nc2c1-c1ccc(F)cc1 | 0.06 | -2.1
Cc1c(C(=O)NC2CCCCC2C)sc2nc3n(c(=O)c12)CCCCC3 (stereo not drawn) | -0.42 | x
Cc1cn2c(=O)cc(CSc3nc4ccc(NC(=O)CC(C)C)cc4s3)nc2s1 | 0.19 | x
Cc1cccc(NS(=O)(=O)c2ccc3c(c2)CCN3)c1 | 0.76 | x
